Screening data as filed in PubChem BioAssay.
CSC inhib = cancer stem cell inhibition | cancer stem cell-like cells viability, luminescence | inhibition, % at 7.5 µM | 1.1% of 300,000 active | AID 2717;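 active = mean at 75% or more and at least half the replicates too; tested in HMLE shEcad cells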;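 note: 0% = median of negative and 100% = median of positive control wells; the first replicate is given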
Rce1 inhib = blocks yeast Ras-converting enzyme; Q03530; yeast membranes, quenched prenylated peptide cleavage fluorescence; calls only; 0.27% of 290,000 active; AID 2563;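 active = fall in fluorescence gain of 50% or more versus controls, with final raw signal at or below 3038400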;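 note: plate controls were neutral control wells for no effect and wells lacking membranes for full effect; tested at 10 µM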
Target sequence (Q03530 whole entry, looked up): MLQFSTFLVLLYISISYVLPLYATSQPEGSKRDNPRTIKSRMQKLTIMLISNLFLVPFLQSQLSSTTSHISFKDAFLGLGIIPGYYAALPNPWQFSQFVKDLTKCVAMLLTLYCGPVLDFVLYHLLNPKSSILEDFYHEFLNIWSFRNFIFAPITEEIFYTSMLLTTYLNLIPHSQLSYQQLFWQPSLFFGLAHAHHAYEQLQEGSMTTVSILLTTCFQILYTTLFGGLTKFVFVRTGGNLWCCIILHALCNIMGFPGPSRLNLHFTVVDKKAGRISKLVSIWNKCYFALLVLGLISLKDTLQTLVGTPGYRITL
eIF4H inh = inhibitors of RNA binding by human eIF4H; Q15056; eIF4H fluorescence polarization binding assay; inhibition, % at 35 µM; 0.94% of 290,000 active; AID 2012;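 active = 50% or more with normal probe brightness, or confirmed in later tests; about a fifth of its hits are not listed in these tables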;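 note: calls also rest on retests at 20 µM and on dose response follow-up; 0% = protein and probe with vehicle and 100% = probe without protein; strong numbers were not always called active; many hits fall short of the cut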
HIV Env fusion = inhibitors of HIV Env-mediated cell fusion; HeLa-JRFL Env/CEM21 cell fusion, luciferase; inhibition, % at 12.3 µM; 1.1% of 360,000 active;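 active = mean replicate inhibition score of at least 50 and every replicate individually at or above 50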;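 note: 0% = plate neutral controls and 100% = maraviroc near 300 nM; one replicate is shown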
PABP polyA inh = PABP-poly(A) binding inhibition; PABP-poly(A) RNA binding, fluorescence polarization; P11940; 1% of 290,000 active; AID 2014; inhibition, % at 35 µM;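 active = 50% or more with normal probe brightness, or confirmed in later tests; about a fifth of its hits are not listed in these tables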;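 note: calls also rest on retests at 20 µM and on dose response follow-up; controls were probe without protein and protein plus probe with vehicle; some compounds called inactive have numbers as strong as hits; many hits fall short of the cut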
Target sequence (P11940 whole entry, looked up): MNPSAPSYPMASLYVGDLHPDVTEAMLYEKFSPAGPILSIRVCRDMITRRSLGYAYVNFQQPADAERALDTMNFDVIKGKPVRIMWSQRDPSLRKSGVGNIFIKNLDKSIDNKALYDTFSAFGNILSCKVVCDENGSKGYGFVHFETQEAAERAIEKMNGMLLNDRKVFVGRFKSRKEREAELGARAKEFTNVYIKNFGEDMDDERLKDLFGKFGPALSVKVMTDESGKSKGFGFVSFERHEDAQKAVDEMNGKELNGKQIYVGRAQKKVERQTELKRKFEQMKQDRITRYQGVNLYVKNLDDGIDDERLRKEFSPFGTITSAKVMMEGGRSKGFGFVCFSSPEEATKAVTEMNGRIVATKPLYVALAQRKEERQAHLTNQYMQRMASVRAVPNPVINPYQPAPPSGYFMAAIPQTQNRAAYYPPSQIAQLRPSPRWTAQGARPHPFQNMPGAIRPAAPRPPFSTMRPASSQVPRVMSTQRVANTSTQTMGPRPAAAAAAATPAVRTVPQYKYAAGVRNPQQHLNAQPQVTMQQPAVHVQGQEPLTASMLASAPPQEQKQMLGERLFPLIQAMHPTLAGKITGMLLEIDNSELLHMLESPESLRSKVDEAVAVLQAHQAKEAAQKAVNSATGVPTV
MT1-MMP act inh = MT1-MMP (human) activation inhibition. P50281. HT1080 RFP-PRO-GFP cells, GFP/RFP ratio fluorescence, overnight; percent of plate control window, DMSO zero. GFP/RFP ratio change, % at 20 µM. 0.061% of 360,000 active;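 active = GFP/RFP ratio change of at least 30% with cell ATP level not reduced by more than half and red fluorescence within 50% of control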; note: strong numbers were not always called active
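Assay system: RFP-PRO-GFP reporter HT1080 cells; read-out basis: GFP/RFP fluorescence ratio; benchmarks: DMSO wells and RFP-L50D-GFP cells; doses: 20 µM single dose, 1% DMSO; schedule: overnight cell settling, then overnight compound exposure, 37 °C, 5% CO2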
UUG fidelity = alters start codon recognition fidelity in yeast; S. cerevisiae UUG-firefly luciferase reporter, luminescence/redox ratio; activity score, % at 18.7 µM; 0.13% of 350,000 active;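 active = replicate mean at a twofold rise or more, about +100% in these data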;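 note: firefly luciferase made from a UUG start codon reports start codon fidelity; reporter light over untreated wells divided by growth signal over untreated wells; some hits fall short of that in this replicate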
eIF4H inh retest = further read-out of eIF4H inh, marked with its call; inhibition, %; compound at 20 µM; confirmation average;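 mean of two retest wells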
PABP polyA inh retest = also measured in PABP polyA inh; calls as there; inhibition, %; compound at 20 µM; confirmation repeats;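 mean of two retest wells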
MT1-MMP act inh RFP = further read-out of MT1-MMP act inh, marked with its call; RFP signal change, %; measured here: RFP expression control read;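 0 = vehicle wells; hits needed this value within 50% of zero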
Starred values were filed as active, the others as inactive; i = inactive; · = not tested or not shown.

SMILES	CSC inhib	Rce1 inhib	eIF4H inh	HIV Env fusion	PABP polyA inh	MT1-MMP act inh	MT1-MMP act inh RFP	UUG fidelity	others
COCCn1c(C)cc(C(=O)CSc2nnc(-c3cccnc3)n2-c2ccccc2F)c1C	-9	i	130	-7	124*	-9	-3	7	eIF4H inh retest=48;PABP polyA inh retest=64*
Clc1ccc(C2C3=C(Nc4ncnn42)c2ccccc2CC3)cc1 (centres undefined)	-3	i	0	·	-3	·	·	·
COc1ccc(-c2sc(Nc3ccccc3)n[n+]2-c2ccc(F)cc2)c(OC)c1OC	-3	i	-9	-14	10	-5	3	-4
Nn1cnnc1N/N=C/c1cc([N+](=O)[O-])c(Cl)cc1Cl	-3	i	1	·	26	1	0	-19
CC(=O)Nc1ccc(NC(C)=C(C#N)C#N)cc1	-9	i	-9	·	-5	-6	3	·
O=C(NCc1ccncc1)C(=O)NCC(c1ccco1)N1CCN(c2ccccc2)CC1 (centres undefined)	-7	i	-4	23	-8	-2	-6	·
O=C(c1cccc(S(=O)(=O)N2CCOCC2)c1)N1CCN(c2ncccn2)CC1	·	·	·	-59	·	2	-2	3
CN1C(=O)C(CCC(N)=O)NC1=S (centres undefined)	1	i	-1	2	7	2	3	-19
O=C(NC(c1ccc(-c2ccccc2)cc1)c1cnccn1)C1CCN(Cc2cccs2)CC1 (centres undefined)	·	·	·	15	·	3	0	-33
O=C(Cc1ccc(NC(=O)C2CCCN(C(=O)C3CC3)C2)cc1)Nc1cccc(C(=O)N2CCCC2)c1 (centres undefined)	·	·	·	0	·	4	7	-14
Cc1nc2c(OCc3cc(Cl)cc(Cl)c3)cccn2c1N(C)C(=O)CCC1CCCC1	·	·	·	20	·	-26	-22	-14
COc1ccc(CNc2nn3c(-c4cccc(C(=O)N(C)C)c4)cnc3s2)cc1	·	·	·	35	·	-22	-18	-19
CN(C)c1oc(-c2ccc(Cl)cc2)nc1S(=O)(=O)c1ccccc1	-2	i	-3	15	-6	9	1	-10
C=C(C)c1ccc(C(C)(C)NC(=O)N(Cc2ccccc2)Cc2ccco2)cc1	13	i	-4	32	2	3	-7	-16
NC(=O)C1=C[C@@H](C2CCCCC2)C[C@@H](OCCCCO)O1	-17	i	6	-22	9	5	5	-10
COc1ccc(C(=O)NC2CC(C)(C)Cc3c2cnn3-c2ccccc2C)c(OC)c1OC (centres undefined)	-3	i	-8	·	18	0	-3	-27
CCOC(=O)c1[nH]c2ccc(Br)cc2c1NC(=O)CNC	1	i	2	4	-13	-1	-2	-20
O=c1ccc(-c2ccc(S(=O)(=O)NCc3cccc(Br)c3)s2)n[nH]1	-2	i	-14	5	-7	-2	3	-23
N#CC1(c2ccccc2)CCC(NCCc2ccccc2)CC1 (centres undefined)	15	i	13	-16	18	3	0	-2
O=C(Cn1nc(CNc2ccc(Cl)cc2)[n+]2c1CCCCC2)c1ccc(Cl)cc1	11	i	-7	-27	2	-15	-1	-9
O=C(CCS(=O)(=O)c1cccs1)Nc1ccc(C(=O)NCc2ccc(F)cc2)cc1	6	i	-3	7	-14	-3	-1	-4
CC(C)(C)c1ccc(S(=O)(=O)Nc2ccc3c(c2)COC3=O)cc1	-4	i	-17	6	-15	7	-5	-3
CCn1nnc(NC(=O)c2ccccc2Br)n1	-8	i	-5	-73	-8	0	2	-25
Cc1ccccc1CN1CCN(C(=O)c2ccc(F)cc2)CC1	-17	i	2	9	4	-3	-1	-20
CC1CCN(C(=O)CSc2nnc(CNc3ccc(F)cc3)n2Cc2ccco2)CC1	24	i	2	·	-12	7	2	-6
CNC(=O)CS(=O)(=O)CC(=O)Nc1cc(OCCOC)c(Cl)cc1Cl	-4	·	-8	13	-6	-3	1	·
O=C(COC(=O)/C=C/c1ccc(C(F)(F)F)cc1)NCC1CCCO1 (centres undefined)	-5	i	·	4	·	4	-1	-6
CC1(C)CC(=O)C=C(c2cccc(O)c2)C1=O	-4	·	·	-23	·	3	6	-21
C=CCN1C(=O)c2ccc(C(=O)NCCc3ccc(OC)c(OC)c3)cc2C1=O	-14	i	-10	-8	-17	3	4	-17
CC1=C(C(N)=O)C(c2ccccn2)n2nc(-c3ccccc3Cl)nc2N1 (centres undefined)	·	i	-1	-3	-4	1	0	-17
Cc1nc(-c2ccc(C(=O)Nc3cc(S(N)(=O)=O)ccc3C)cc2)cs1	0	i	0	-10	20	-2	-3	6
CC(=O)Nc1sc2c(c1C(c1ccccn1)N1CCN(C)CC1)CCCC2 (centres undefined)	-9	i	2	4	-5	-1	3	-16
COc1cc(Nc2nc3ccccc3nc2NS(=O)(=O)c2ccc([N+](=O)[O-])cc2)cc(OC)c1OC	11	i	-4	45	-6	2	-15	-12
Cc1ccc(S(=O)(=O)N2CCC[C@H]2C(=O)Nc2ccccc2C)cc1	-16	·	·	1	·	-1	2	-17
C#CCOCCOCCOCCNc1nc(N2CCN(C(=O)Cn3cc(CCCN=C(N)N)nn3)CC2)nc(N2CCN(C(=O)[C@H]([C@@H](C)CC)n3cc(CCC(=O)O)nn3)CC2)n1	-1	i	8	4	1	2	3	-21
O=C(c1ccc(Cl)c(S(=O)(=O)N2CCCCCC2)c1)N1CCCC1	-5	i	-5	4	4	2	-1	-6
O=c1c2cccnc2[nH]c(=S)n1CCC1=CCCCC1	-5	i	-8	-60	-8	-1	-1	-14
COc1ccc(C(=O)NC(C)c2ccc(-n3ccnc3)cc2)cc1S(=O)(=O)N1CCOCC1 (centres undefined)	·	·	·	0	·	1	-2	-11
COc1ccc(N2C(=O)NC(=O)C2=O)cc1	-16	i	-9	3	1	0	2	-24
O=C(Nc1cccc([N+](=O)[O-])c1)c1ccc([N+](=O)[O-])o1	·	·	·	-12	·	14	-4	-15
COc1cc(/C=N/N=C2/NC(=O)C(c3ccccc3)S2)ccc1O (centres undefined)	-6	i	-3	·	-8	3	3	-14
Cc1ccc(NC(=O)CCc2nnc3ccc(N4CCC5(CC4)OCCO5)nn23)cc1F	-22	i	-2	-2	-1	-1	-3	-17
Oc1oc(-c2ccc(Br)cc2)nc1/C=N/c1ccccn1	-8	i	1	-27	-2	-1	0	·
CCc1ccc(NC(=O)c2noc(C(C)C)c2[N+](=O)[O-])cc1	5	i	-12	-39	-4	7	3	·
O=[N+]([O-])c1cccc(C(O)C23CN4CN(CN(C4)C2)C3)c1 (centres undefined)	-4	i	-6	5	5	5	4	3
CC(C)(CNC(=O)CNC(=O)c1ccc(Cl)cc1Cl)N1CCOCC1	·	·	·	-19	·	4	2	-17
CNC(=O)C[C@H]1C(=O)N(CCc2ccccc2)C[C@@H]1c1ccc(OC)cc1	·	·	·	-6	·	2	1	-3
Cc1ccc(C(=O)NCC(=O)NNC(=O)CN(C)S(=O)(=O)c2ccc(Cl)cc2)s1	0	i	·	-3	·	2	0	-14
CCN(CC(=O)Nc1c(F)cccc1F)C(=O)COc1cccc2c1OC(C)(C)C2	-5	i	·	1	·	1	3	·
COC(=O)c1sccc1NC(=S)N1CCN(c2ccc(F)cc2)CC1	-1	i	-1	-23	-5	0	3	-21
O=C1NC(=O)/C(=C/c2cccc(O)c2)N1	-8	i	18	0	3	3	4	-19
CSCC(C)N1CCC(CO)(CCc2ccccc2)CC1 (centres undefined)	-7	i	-3	5	-4	-1	4	-11
CCOc1ccc(C2C3=C(CCCC3=O)OC(N)=C2[N+](=O)[O-])cc1 (centres undefined)	-16	i	-3	17	-6	5	3	-16
FC(F)(F)c1cccc(CON=C2CCN(c3ncc(C(F)(F)F)cc3Cl)CC2)c1	-6	i	-11	21	-5	9	-5	-6
Cc1onc(-c2c(F)cccc2Cl)c1C(=O)N(C)CC(=O)Nc1cccc(F)c1	13	i	·	2	·	4	0	2
COCCNC(=O)COC(=O)c1nsc(Cl)c1Cl	-5	i	1	31	-3	0	1	·
CCOC(=O)c1ccc(S(=O)(=O)NNC(=O)c2cccc(N(C)C)c2)cc1	-7	i	14	10	-6	0	5	·
Cc1cccc(NC(=O)CSCC(=O)Nc2ccc(S(=O)(=O)N3CCOCC3)cc2)c1	-13	i	·	1	·	1	-2	·
Cn1c(NCc2cccc(Br)c2)nc2ccccc21	1	i	8	-26	-5	3	-7	-6
COCCCn1c(Cc2csc(Nc3cccc(Cl)c3)n2)nnc1SCC(=O)OC	-14	i	17	·	22	-4	4	-11

15 neighbouring entries out of the list so far:
SMILES	CSC inhib	Rce1 inhib	eIF4H inh	HIV Env fusion	PABP polyA inh	MT1-MMP act inh	MT1-MMP act inh RFP	UUG fidelity	others
COCCn1c(C)cc(C(=O)CSc2nnc(-c3cccnc3)n2-c2ccccc2F)c1C	-9	i	130	-7	124*	-9	-3	7	eIF4H inh retest=48;PABP polyA inh retest=64*
Clc1ccc(C2C3=C(Nc4ncnn42)c2ccccc2CC3)cc1 (centres undefined)	-3	i	0	·	-3	·	·	·
COc1ccc(-c2sc(Nc3ccccc3)n[n+]2-c2ccc(F)cc2)c(OC)c1OC	-3	i	-9	-14	10	-5	3	-4
Nn1cnnc1N/N=C/c1cc([N+](=O)[O-])c(Cl)cc1Cl	-3	i	1	·	26	1	0	-19
CC(=O)Nc1ccc(NC(C)=C(C#N)C#N)cc1	-9	i	-9	·	-5	-6	3	·
O=C(NCc1ccncc1)C(=O)NCC(c1ccco1)N1CCN(c2ccccc2)CC1 (centres undefined)	-7	i	-4	23	-8	-2	-6	·
O=C(c1cccc(S(=O)(=O)N2CCOCC2)c1)N1CCN(c2ncccn2)CC1	·	·	·	-59	·	2	-2	3
CN1C(=O)C(CCC(N)=O)NC1=S (centres undefined)	1	i	-1	2	7	2	3	-19
O=C(NC(c1ccc(-c2ccccc2)cc1)c1cnccn1)C1CCN(Cc2cccs2)CC1 (centres undefined)	·	·	·	15	·	3	0	-33
O=C(Cc1ccc(NC(=O)C2CCCN(C(=O)C3CC3)C2)cc1)Nc1cccc(C(=O)N2CCCC2)c1 (centres undefined)	·	·	·	0	·	4	7	-14
Cc1nc2c(OCc3cc(Cl)cc(Cl)c3)cccn2c1N(C)C(=O)CCC1CCCC1	·	·	·	20	·	-26	-22	-14
COc1ccc(CNc2nn3c(-c4cccc(C(=O)N(C)C)c4)cnc3s2)cc1	·	·	·	35	·	-22	-18	-19
CN(C)c1oc(-c2ccc(Cl)cc2)nc1S(=O)(=O)c1ccccc1	-2	i	-3	15	-6	9	1	-10
C=C(C)c1ccc(C(C)(C)NC(=O)N(Cc2ccccc2)Cc2ccco2)cc1	13	i	-4	32	2	3	-7	-16
NC(=O)C1=C[C@@H](C2CCCCC2)C[C@@H](OCCCCO)O1	-17	i	6	-22	9	5	5	-10

The results go on:
SMILES	CSC inhib	Rce1 inhib	eIF4H inh	HIV Env fusion	PABP polyA inh	MT1-MMP act inh	MT1-MMP act inh RFP	UUG fidelity	others
NC(=O)c1ccccc1OCCOc1ccc(Br)cc1	8	i	-4	-33	14	1	-9	-7
O=C(CN(c1ccc(F)cc1)S(=O)(=O)c1ccccc1)NC1CCCCCC1	5	i	-2	6	4	2	1	-12
CNC(=O)c1cn(-c2ccc(Cl)cc2)c(=O)c2ccccc12	2	i	-14	0	-2	-3	1	·
COc1ccc(OCCSc2nnc(C(C)NC(=O)c3ccccc3F)n2C)cc1 (centres undefined)	-6	i	-13	-3	-1	1	-2	·
O=CN1CCN(C(=O)c2cccc([N+](=O)[O-])c2)CC1	-15	i	4	-8	0	3	5	-15
CCCCC(=O)Nc1ccc(NC(=O)CC)cc1OC	0	·	11	-12	-7	3	1	-15
COc1ccc2[nH]c(=O)c(CN(CC3CCCO3)C(=S)Nc3ccc(C)cc3)cc2c1 (centres undefined)	11	i	-10	-3	-2	-4	-11	·

The list is partial (hit frequency here may not be typical).
